miR-21 reporter = miR-21 reporter, rising signal; HeLa miR-21 FLuc reporter, luciferase, 48 h; Potency, µM (titrated, usually from 38.3 µM), for the others: at the highest dose reporter change, positive = more light; 340,000 tested, under 10 active; active = well fitted rising curve with a large enough effect; inconclusive = small, poorly fitted or top-dose-only effect; inactive = no such curve, though single readings can be large or run the other way;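 note: % of control where 0% means no effect; miR-21 action dims this reporter so a rising signal means less miR-21 action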
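Luminescence from a firefly luciferase reporter carrying a miR-21 binding site downstream, stably expressed under a CMV promoter in HeLa cells that make miR-21 endogenously, reports miRNA modulation after 48 h compound exposure up to approximately 40uM final.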
Rango dissoc inh = prevents RanGTP from dissociating the Rango-importin beta complex | O95149+P62826 | Biochemical FRET Rango-importin beta, RanGTP-induced dissociation | Potency, µM (titrated, usually from 46.1 µM), for the others: top-dose activity change, negative = inhibition | 0.071% of 340,000 active | AID 540253; active means falling FRET ratio curve, often poorly fitted, with flat reads before Ran was added; inconclusive means other falling curves, or compound fluorescence or quenching; inactive means flat or rising ratio curve;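 note: potency is the fitted concentration of half-maximal effect; % of control where 0% means no effect; nearly all actives have a fitted effect of over 45% in size; -100% = wells without RanGTP and RCC1; the record marks most hits as doubtful in a second field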
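Rango/importin beta premix (0.1/0.25 uM final), PBS + 1 mM DTT + 0.02% Tween-20 + 0.1% BSA; cpd 5 min RT; FRET pre-read; + RanGTP-RCC1 (0.6 uM Ran, 2 mM GTP, 0.2 uM RCC1); 45 min RT; FRET post-read, ex 430, em 486/530 nm.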
GLA inh pH 4.5 = blocks human alpha-galactosidase A at pH 4.5; purified enzyme, 4-MU-alpha-Gal fluorescence, pH 4.5; P06280; AID 1467; activity change, negative = inhibition, % at 105 µM; 230,000 tested, under 10 active; inconclusive = small, poorly fitted or top-dose-only inhibition, or a rising curve; inactive = flat fitted curve, though single readings scatter; no compound was filed as active;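 note: 0% = full activity with enzyme and -100% = basal without enzyme; dose as in the result columns while the protocol names 77 µM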
Rango-impB inh = Rango-importin beta binding inhibition. 0.031% of 340,000 active. Rango CFP/YFP FRET sensor + importin beta, 45 min. Potency, µM (top dose mostly 92.2 µM), for inactives: at the top dose inhibition of complex formation. AID 540263; active = rising FRET ratio curve, often small or poorly fitted; inconclusive = mostly compound fluorescence or quenching in the first reads; inactive = flat curves in all reads;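 note: potency is the fitted concentration of half-maximal effect; 0% = DMSO wells and 100% = buffer wells lacking importin beta; nearly all actives have a fitted effect of over 15% in size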
Target sequence (Q14974 whole entry, looked up): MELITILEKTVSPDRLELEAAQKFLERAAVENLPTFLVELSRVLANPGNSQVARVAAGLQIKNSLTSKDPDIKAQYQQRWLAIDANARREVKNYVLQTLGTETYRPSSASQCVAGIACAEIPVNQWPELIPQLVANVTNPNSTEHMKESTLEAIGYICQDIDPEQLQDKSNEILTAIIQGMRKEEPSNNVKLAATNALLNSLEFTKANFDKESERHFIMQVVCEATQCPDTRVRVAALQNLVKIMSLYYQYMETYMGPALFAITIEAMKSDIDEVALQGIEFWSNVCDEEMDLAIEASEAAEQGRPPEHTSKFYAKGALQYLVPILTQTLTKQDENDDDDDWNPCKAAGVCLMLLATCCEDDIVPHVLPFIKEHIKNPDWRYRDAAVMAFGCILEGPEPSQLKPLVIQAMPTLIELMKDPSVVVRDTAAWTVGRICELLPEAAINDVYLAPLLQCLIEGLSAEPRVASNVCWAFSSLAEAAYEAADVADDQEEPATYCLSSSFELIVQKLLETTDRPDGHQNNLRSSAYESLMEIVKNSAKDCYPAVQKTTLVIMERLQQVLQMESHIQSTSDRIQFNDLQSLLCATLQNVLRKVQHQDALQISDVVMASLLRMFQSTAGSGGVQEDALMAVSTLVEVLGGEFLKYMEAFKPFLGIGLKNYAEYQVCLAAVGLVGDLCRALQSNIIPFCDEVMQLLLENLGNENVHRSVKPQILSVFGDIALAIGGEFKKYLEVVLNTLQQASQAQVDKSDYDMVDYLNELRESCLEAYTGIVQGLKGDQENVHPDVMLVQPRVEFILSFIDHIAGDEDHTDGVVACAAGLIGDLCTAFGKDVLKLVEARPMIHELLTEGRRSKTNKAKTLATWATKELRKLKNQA
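Inhibition scored from the CFP 486 nm/YFP 530 nm FRET ratio 45 min after adding 0.125 microM importin beta to 50 nM Rango biosensor preincubated 5 min with compound (room temperature, PBS with DTT, Tween-20, BSA). No-importin wells as positive control.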
Numbers without * were called inactive; ? = inconclusive; nt = not tested or not shown; & = joins results of further samples.

SMILES | miR-21 reporter | Rango dissoc inh | GLA inh pH 4.5 | Rango-impB inh
N#CN=C1CCCCCN1CC(N)=O | -4% | -4% | 0 | -4.0%
C=CCn1c(SCC(=O)N2CCN(C(=O)c3ccco3)CC2)nc2sc(CC)cc2c1=O | 7% | 4% | -4 | 1.3%
O=C(/C=C/c1ccc(Cl)c(C(F)(F)F)c1)N1CCN(c2ccccn2)CC1 | 0% | 18% | nt | 2.9%
COC(=O)c1ccccc1NC(=O)Nc1c(C)n(C)n(-c2ccccc2)c1=O | -7% | 25% | nt | 0.4%
COc1ccc(N(C(=O)c2ccncc2)S(=O)(=O)c2cccc([N+](=O)[O-])c2)cc1 | -5% | 0% | nt | -3.8%
O=C(CN1CCN(Cc2ccccc2)CC1)Nc1ccc(Cl)cc1 | -7% | -9% | nt | -0.8%
O=S(=O)(NCCC1=CCCCC1)c1cccc(S(=O)(=O)N2CCOCC2)c1 | 5% | -10% | -2 | -4.1%
COc1ccc(CNC(=O)C2CSCCS2)cc1 (stereo unspecified) | -24% | -20% | 4 | 8.4%
Cc1oc2c(c1C(=O)c1ccccc1)C(=O)C(=O)c1ccccc1-2 | ? | 1% | -6 | 3.7%
Cc1c(NC(=O)c2cc(-c3ccc(O)cc3)on2)c(=O)n(-c2ccccc2)n1C | 5%&5% | 14% | -7 | -1.6%
O=C(Nc1ccccc1-c1nnc(SCc2ccccc2Cl)o1)c1ccccc1 | -2% | 21% | 3 | -1.0%
COc1ccc(OC)c(S(=O)(=O)Nc2cccc(-c3ccc(N4CCCCCC4)nn3)c2)c1 | -9%&-13% | -9% | nt | -5.3%
Cc1cccc(OCC(=O)NNC(=O)CCc2ccccc2)c1 | -6% | 11% | -3 | -1.8%
Cc1ccc(C(=O)O/N=C(\N)c2ccccn2)cc1 | 21% | 9% | nt | 3.8%
Cc1c(C(=O)NC2CCN(Cc3ccccc3)C2)oc2c(Cl)cccc12 (stereo unspecified) | -1% | 0% | nt | 0.1%
CCOC(=O)c1ccc(N=Nc2c(C)c(C#N)c(O)[nH]c2=O)cc1 | -13% | -29% | -6 | ?
CCCc1ccc(Oc2c(-c3ccc(O)c(C)c3O)n[nH]c2C)cc1 | 14% | -10% | 6 | 0.1%
CCCOc1ccc(OCCN2CCCC(C)C2)cc1 (stereo unspecified) | -3% | 35% | 5 | 4.1%
COc1ccc2[nH]c(C(=O)O)c(NS(=O)(=O)c3ccc(C)cc3C)c2c1 | 0% | -8% | nt | -0.9%
CCCCn1c(N)c(N(CCC(C)C)C(=O)C2CC(=O)N(c3cccc(SC)c3)C2)c(=O)[nH]c1=O (stereo unspecified) | nt | -3% | nt | -4.5%
CCc1ccccc1NC(=O)NC(C)c1ccc2c(c1)OCO2 (stereo unspecified) | -3% | -8% | nt | -1.2%
O=C(NCc1nnc(SCC(=O)N2CCOCC2)o1)c1cccs1 | 0% | -1% | 16 | -1.3%
CCCCC(=O)Nc1ccc(NC(=S)NC(=O)c2ccco2)cc1OC | -24% | 0% | -1 | -1.0%
Cc1ccccc1N1C(=O)CN(Cc2sccc2C)C1=S | 5% | 4% | 3 | 3.2%
Cc1ccc(S(=O)(=O)N2CCCN(c3nccc(C(F)(F)F)n3)CC2)cc1 | -7% | 13% | -2 | -0.2%
CCCCNC(=O)N1CCC(CCC(=O)N(C)Cc2ccccc2)CC1 | 7% | -12% | nt | 0.9%
Cc1oc(-c2ccccc2)nc1C(=O)OCC(=O)NC(C)c1ccccc1 (stereo unspecified) | nt | -12% | nt | 0.6%
CN(C)CCNc1ccc2ncn3c4ccc(O)cc4c(=O)c1c23 | nt | ? | nt | ?
COC1C(C)=C(C)C(=O)N1Cc1ccccc1 (stereo unspecified) | -1% | -8% | nt | -0.7%
CCCn1c(Nc2ccccc2C)nc2ccccc21 | -8% | -1% | -6 | 2.4%
COc1ccc(CC(=O)OCc2nnc(C3COc4ccccc4O3)o2)cc1OC (stereo unspecified) | -9% | -10% | 2 | -0.1%
Cc1ccc2c(CC(=O)NCC(C)(C)N3CCOCC3)coc2c1 | -2% | -8% | 6 | -3.8%
O=C(NCc1ccncc1)C1CCCCC1 | -6% | 2% | -3 | -0.1%
COCCNCc1ccccc1[N+](=O)[O-] | nt | 21% | nt | -5.6%
C/C(=N\NC(=O)c1ccc2c(c1)OCO2)c1ccco1 | 0% | 1% | 5 | -1.1%
CC(C)(C)c1ccc(OC(=O)c2ccc3snnc3c2)cc1 | 1% | -9% | -5 | -1.4%
COc1cc2sc3ccc(-c4ccc5[nH]ccc5c4)cc3c(=O)c2cc1OC | nt | -12% | nt | ?
CC1=C(C(=O)OC(C)C)C(c2cccnc2)C2=C(CCCC2=O)N1 (stereo unspecified) | -2% | ? | 25 | ?
Cc1cc(Cl)ccc1OCC(=O)NCCOC(=O)Nc1sc(=S)n(C)c1C | -5% | -5% | 0 | 1.5%
Cc1cc(S(=O)(=O)Nc2c(C)ccc3nsnc23)ccc1F | 0% | -17% | 5 | 3.6%
Cc1cccc(NC(=S)N2CCN(S(=O)(=O)c3ccccc3)CC2)c1 | -5% | -5% | nt | -5.6%
Nc1ccccc1C(=O)N1CCc2ccccc21 | -34% | -9% | nt | 1.5%
Cc1ccc(Cn2c(N/N=C/c3ccncc3)nc3c2c(=O)n(C)c(=O)n3C)cc1 | 4% | -6% | -11 | 0.2%
Cc1onc(-c2ccccc2)c1C(=O)NNC(=S)NC(=O)c1ccc(Cl)cc1Cl | -3% | -6% | -4 | 1.1%
O=C(COC(=O)c1ccccc1[N+](=O)[O-])c1ccc2c(c1)OCO2 | nt | -15% | nt | -0.5%

One compound at a time, from the list above.
`N#CN=C1CCCCCN1CC(N)=O` is listed as miR-21 reporter: -4%; Rango dissoc inh: -4%; GLA inh pH 4.5: 0; Rango-impB inh: -4.0%
`COc1ccc(CC(=O)OCc2nnc(C3COc4ccccc4O3)o2)cc1OC` (stereo unspecified) is listed as miR-21 reporter: -9%; Rango dissoc inh: -10%; GLA inh pH 4.5: 2; Rango-impB inh: -0.1%

Carrying on.
SMILES | miR-21 reporter | Rango dissoc inh | GLA inh pH 4.5 | Rango-impB inh
CCc1noc(C)c1C(=O)Nc1nnc(C(CC)CC)s1 | nt | -16% | nt | 0.2%
CCCCC#Cc1cncc(C(=O)N/N=C/c2cccc(OC)c2)c1 | 1% | 14% | -5 | -0.1%
C=CCN=c1scc(-c2ccco2)n1/N=C/c1ccc(O)c(O)c1O | -4% | -12% | -13 | -0.1%
CCOC(=O)C1=C(O)/C(=C\c2ccc(CNC(=O)C(=O)Nc3ccc(C)c(C)c3)o2)N=C1C | -3% | nt | 3 | nt
Cc1ccc(-n2nc3c(c2NC(=O)C2CC2)CS(=O)(=O)C3)cc1 | -4% | 2% | nt | -2.6%
O=C(CN1C(=O)C(=O)c2ccccc21)c1ccc(Cl)cc1 | 0% | 4% | nt | -2.8%
COC(=O)c1cccc(NC(=O)c2ccco2)c1 | -18% | 1% | 2 | 0.3%
O=C(CN1CCCCCC1)N1c2ccccc2Sc2ccc(C(F)(F)F)cc21 | -9% | 0% | -9 | -0.8%
Cc1ccc(N(CCC(=O)O)S(=O)(=O)c2ccccc2)cc1 | -2% | 4% | 1 | 3.0%
Cc1cc(Cl)ccc1NC(=S)NCc1ccccc1Cl | 3% | 2% | 6 | 1.6%
CC(Oc1ccc(Br)cc1Br)C(=O)NC1CCCC1 (stereo unspecified) | -7% | nt | -6 | nt
COc1ccc(S(=O)(=O)N2CCC(N3CCN(c4ccccc4OC)CC3)CC2)cc1 | -6% | 6% | -2 | -1.4%
O=S(=O)(Nc1ccc(F)cc1)c1cccc2nsnc12 | -1% | -3% | nt | 6.4%
CCc1ccccc1Nc1cc(C(=O)NCc2ccccn2)c2ccccc2n1 | 15% | ? | -13 | -1.7%
O=C(CNC(=O)c1ccc2c(=O)n3c(nc2c1)CCC3)Nc1ccc(F)c(F)c1 | nt | 0% | nt | 6.9%
O=C(Nc1nc(-c2ccccc2)cs1)C1CCCCN1S(=O)(=O)c1ccc(Cl)cc1 (stereo unspecified) | 23% | -5% | 8 | 2.2%
COCC1CCCCN1C(=O)CCCn1nnnc1CN1CCC(C)CC1 (stereo unspecified) | -3% | ? | nt | -0.8%
COc1ccc(CC(=O)N2CC(=O)N(CCc3ccccc3)C(=O)C2)cc1 | -4% | 1% | -8 | 0.2%
CCOC(=O)c1[nH]c(C)c(C(=O)Nc2cc(OC)ccc2OC)c1C | 11% | -1% | 1 | -7.7%
CCCc1cc(=O)oc2c(CN3CCOCC3)c(O)ccc12 | -4% | ? | ? | ?
CSCC[C@H](N)C(=O)N1CCC(C(=O)N[C@@H](Cc2c[nH]c3ccccc23)C(=O)O)CC1 | 1% | 2% | nt | -0.2%
COc1ccc(NC(=O)c2ccc(Br)o2)cc1 | -81% | 8% | -5&12 | -2.7%
Cc1ccc(C(=O)NNC(=O)CSc2n[nH]c(-c3cccnc3)n2)cc1 | 1% | -14% | -6 | -0.5%
C/C(=N\NC(=O)c1cc(C)oc1C)c1ccc2ccccc2c1 | 0% | 4% | nt | -3.9%
COc1ccc2no[n+]([O-])c2c1 | 0% | nt | 0 | nt
CC1=C/C(=N\NC(=O)c2ccccc2)CC1 | -44% | -13% | 1 | 4.4%
c1ccc(-c2nc(NCc3cccnc3)c3ccccc3n2)cc1 | -2% | 26% | -1 | 7.5%
Cc1cc(NC(=O)c2ccco2)c(=O)n(Cc2cccc(C(F)(F)F)c2)c1 | -1% | 13% | nt | 1.9%
Cc1ccc(C)c(S(=O)(=O)N2CCCC2CNC(=O)C(=O)NCc2cccs2)c1 (stereo unspecified) | nt | 7% | nt | -0.3%
COc1ccc(C(C)=O)cc1COC(=O)CCC(=O)c1cccs1 | nt | -12% | nt | -4.2%
COc1ccc(-n2c(Cc3cccn3C)nnc2SCC(=O)Nc2nc(C)cs2)cc1 | -8% | -18% | 2 | -0.4%
O=C(Nc1ccccc1Sc1ccccc1)c1ccccc1F | nt | -2% | nt | 2.0%
O=C(/C=C/c1cccnc1)c1cc(F)ccc1O | 1% | 2% | 0 | -1.2%
CCc1cc2c(=O)c(-c3nc(C)cs3)c(CCCC(=O)O)oc2cc1O | -5% | -17% | 2 | 0.0%
CCc1c(C)sc(NC(=S)N2CCN(S(C)(=O)=O)CC2)c1C(=O)OC | -1% | 35% | 1 | 1.5%
CC(C)c1ccc(C(C(=O)NC2CCCCC2)N(C(=O)c2ccccn2)c2cccnc2)cc1 (stereo unspecified) | -1% | 1% | -1 | 5.0%
CC(C)(C)NCC(O)(c1ccc(Cl)cc1)c1ccc(Cl)cc1 | -5% | 8% | 8 | -0.2%
CN1CCCC(OC(=O)c2cccc(Br)c2)C1 (stereo unspecified) | -2% | -9% | nt | 4.4%
COc1cccc(CNC(=O)c2nnn(CC(=O)Nc3cccc(C)c3)c2N)c1 | -19% | 12% | nt | -0.2%
CC1=NN(C(=O)CSCc2ccccc2)C(O)(c2ccc(F)cc2)C1 (stereo unspecified) | -1% | 5% | -1 | 3.5%
Fc1ccc(F)c(NC(=S)NCCc2ccccc2)c1 | 1% | -7% | -3 | -4.2%
N/C(=N\OC(=O)CCCOc1ccccc1)c1ccncc1 | -6% | -20% | 1 | 1.8%
COc1ccc(S(=O)(=O)NC2(C(F)(F)F)NC(=O)N(CCc3ccc(OC)c(OC)c3)C2=O)cc1 (stereo unspecified) | -1%&-6% | 16% | nt | -0.6%
CCOc1cc(C2NC(=O)N(C)C(C)=C2C(=O)OC)cc(Br)c1O (stereo unspecified) | -10% | -21% | -2 | ?
O=P(O)(c1ccccc1)c1ccccc1O | 0% | -5% | 1 | -2.0%
O=C(Nc1nnc(-c2ccc(Cl)s2)o1)C1CC1 | -15% | 4% | 8 | -3.2%
O=C(CCc1cccc(Cl)c1)N1CCCC(Nc2ccccc2)C1 (stereo unspecified) | 0% | 1% | nt | 3.8%
COC(=O)Cn1cc(C(=O)OC)cc(Br)c1=O | 0% | -1% | -7 | -2.8%
O=C1NC(=S)SC1=Cc1cccs1 | nt | 5% | nt | 1.1%

Some of the compounds tested; rates above refer to the full screens.
